Source: PubChem BioAssay
Six1-Eya2 blk – Six1/Eya2 interaction inhibition | activity change, % (no concentration beside the values) | AlphaScreen GST-Six1/His-Eya2 binding, biochemical; stronger effect = lower value; control for the full effect not named in the record | 0.56% of 360,000 active | Q15475+O00167; in the data active = activity change below about -65%; inconclusive = about -30% to -65%; inactive = above about -30%; note: % is set by controls: 0 for no effect and ±100 for the full control effect; compound concentration not given in the record
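GST-Six1 + His-Eya2 (5X stock: 250/500 nM); Tris pH 8.0, 300 mM NaCl, 0.05% BSA, 0.02% Tween 20; GSH donor/Ni acceptor beads; 1 h 37 °C dark; AlphaScreen readout.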
gsp antagonist – gsp mutant antagonism | gsp-mutant cells, cAMP HTRF, 30 min; control for the full effect not named in the record | 0.4% of 340,000 active | Potency, µM (top dose mostly 76.9 µM), inactives show at the top dose activity change, negative = inhibition, most hits filed as inhibitors; active = falling curve of any shape with a large fitted effect; inconclusive = falling curve, mostly with a smaller effect; inactive = flat or rising curve; cell line not stated here;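 note: intracellular cAMP measured with PDE inhibitor Ro 20-1724 present during compound exposure; potency is the fitted concentration of half-maximal effect; % is set by controls: 0 for no effect and ±100 for the full control effect; nearly all actives have a fitted effect of over 65% in size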
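HTRF cAMP measurement after 30 min RT detection following 30 min, 37C compound treatment alongside […] (added as 300 uM solution) in G418-selected cells seeded at 2000/well and grown 16–24 h.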
D2 agonist – human D2 receptor agonism in beta-arrestin assay; DiscoveRx PathHunter D2 beta-arrestin, luminescence, 90 min; 100% = 57 uM dopamine signal; activation, % (concentration not given with the values); 0.084% of 360,000 active; AID 624465; in the data active = activation above about 40%; inconclusive = about 15% to 40%; inactive = below about 15%; note: compound concentration not given in the record; the text of the record calls up to 30% inactive
Target sequence (P14416 whole entry, looked up): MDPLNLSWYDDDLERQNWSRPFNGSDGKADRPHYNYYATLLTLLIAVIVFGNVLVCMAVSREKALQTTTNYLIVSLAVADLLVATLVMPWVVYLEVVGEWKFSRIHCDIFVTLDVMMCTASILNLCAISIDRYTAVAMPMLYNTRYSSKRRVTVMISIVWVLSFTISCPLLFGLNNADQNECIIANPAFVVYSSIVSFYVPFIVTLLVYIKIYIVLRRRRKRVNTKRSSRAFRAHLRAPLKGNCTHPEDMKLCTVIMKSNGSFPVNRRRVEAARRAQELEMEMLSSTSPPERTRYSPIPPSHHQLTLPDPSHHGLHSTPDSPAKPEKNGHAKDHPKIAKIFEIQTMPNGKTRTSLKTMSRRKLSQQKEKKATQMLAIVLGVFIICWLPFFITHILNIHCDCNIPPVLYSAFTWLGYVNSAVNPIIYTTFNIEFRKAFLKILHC
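Agonist mode: compounds alone added to overnight-plated D2 PathHunter cells for 90 min at 37 C, with 57 uM final dopamine (EC100) defining full response. Beta-arrestin recruitment detected by chemiluminescent reagent, read after 1 h at ambient temperature.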
gsp agonist – gsp mutant agonism | AID 624287 | 0.13% of 340,000 active | Potency, µM (series often up to 76.9 µM), without a hit: at the top dose activation (cAMP increase), actives largely listed as activators | gsp mutant cells, cAMP HTRF, 30 min; control for the full effect not named in the record; active = well fitted activation curve with a large enough effect; inconclusive = small, poorly fitted or top-dose-only effect, or another doubt; inactive = no such curve, though single readings can be large or run the other way; cell line not stated here;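 note: phosphodiesterase inhibitor Ro 20-1724 added with compounds to block cAMP breakdown; potency is the fitted concentration of half-maximal effect; nearly all actives have a fitted effect of over 60% in size; about a fifth of the inactives were tested at one dose only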
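Cells stably selected in G418 were plated at 2000/well, grown 16-24 hr, then given compounds in DMSO with the PDE inhibitor […] (300 uM solution added) for 30 min at 37C; cAMP was read by HTRF.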
D2 potentiator – positive allosteric modulators of human D2 dopamine receptor | potentiation, % (test concentration not listed) | DiscoveRx D2 beta-arrestin cells, luminescence, 90 min; 100% = 57 uM dopamine signal | P14416 | 0.23% of 360,000 active | AID 624464; active = potentiation of 50% or more; inconclusive = 30% to 50%; inactive = 30% or less;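 note: compound concentration not given in the record; tested on top of an EC20 dose of dopamine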
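PathHunter beta-arrestin assay in DiscoveRx D2 cells. Compounds were added with an EC20 of dopamine (50 nM final) for 90 min at 37 deg C. Luminescence was read 1 h after detection reagent, with 57 uM dopamine as the EC100 control.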
CtBP-E1A inh – blocks the CtBP interaction with E1A; AlphaScreen GST-E1A/His-CtBP binding, 1536-well; stronger effect = lower value; control for the full effect not named in the record; activity change, % (concentration not given with the values); 0.49% of 340,000 active; AID 651724; in the data active means activity change below about -65%; inconclusive means about -30% to -65%; inactive means above about -30%; note: % is set by controls: 0 for no effect and ±100 for the full control effect
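Steps: dispense buffer (Tris pH 8.0, NaCl 300 mM, TCEP 1 mM, BSA, Tween 20); add 5X protein mix (GST-E1A, His-CtBP, 125 nM each); pin 23 nL compound; 2 h at 37 °C, dark; add 5X beads (50 ug/mL); 1 h; read.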
* marks the source's active call; other numbers are inactive results; ? = inconclusive; · = not tested or not shown; [ ] = another dose, or the depositor's remark.

SMILES	Six1-Eya2 blk	gsp antagonist	D2 agonist	gsp agonist	D2 potentiator	CtBP-E1A inh
CC(C)C(=O)N[C@@H]1c2ccccc2CC[C@H]1OCc1ccccc1	27	3%	-0.3	·	-4	5
C=CCOCCN(CC)CC	4	11%	-3.2	15%[15.4 µM]	-5	1
CCOc1ccccc1COC(=O)c1cccc(-n2cnnn2)c1	5	2%	0.9	17%	4	5
C=CCn1c(Sc2nncn2C)nc2c1c(=O)[nH]c(=O)n2C	10	-2%	-0.2	-1%	-16	0
COC(CNC(=O)c1ccc2nc(-c3ccccc3)c(-c3ccccc3)nc2c1)OC	-3	-20%	-16	2%[15.4 µM]	4	-1
CCN1CCN(c2nc(-c3ccccn3)nc3ccccc23)CC1	?	8%	-4.1	-19%	-12	?
COc1ccccc1CN(C)C(=O)C(NC(=O)Cc1cccc2ccccc12)C(C)C (centres undefined)	1	-20%	-3.1	0%[15.4 µM]	6	-4
Cc1cc(C)c(NC(=O)COC(=O)C23CC4CC(CC(O)(C4)C2)C3)c(Cl)c1	10	3%	-1.4	2%[15.4 µM]	-4	2
Cc1nn(-c2ccccc2)c(Cl)c1/C=N/NC(=O)c1ccccc1F	-4	1%	-2.5	9%[15.4 µM]	-6	-6
COCC(C)n1c(=O)sc2ccccc2c1=O (centres undefined)	11	9%	-1.7	1%[15.4 µM]	-7	8
COc1cc(CNCc2ccccn2)ccc1OCc1ccc(Cl)c(Cl)c1	-19	-1%	-2.0	?	-20	?
Cc1ccccc1Cn1c2ccccc2c2cnn(CC(=O)NCc3ccco3)c(=O)c21	0	1%	-5.3	?	-5	10
COc1ccc(N2CCC(CNC(=O)Nc3ccc(Cl)cc3)C2)cc1 (centres undefined)	?	-18%	-1.3	-37%[inhibitor]	-17	·
C=CCSc1nc(C)c(CC(=C)C)c(=O)[nH]1	2	1%	4.4	1%	-7	-2
COc1cccc(-c2ccc(CN3C(C)C(=O)N(Cc4cn(Cc5ccco5)nn4)CCS3(=O)=O)cc2)c1OC (centres undefined)	-12	·	2.9	·	1	-8
O=c1c2c3c(sc2n2cnnc2n1Cc1ccccc1)CN(Cc1ccccc1)CC3	?	-14%	-11	-14%	-23	-28
COc1ccc(C2=NOC(C(=O)NC(C)(C)C)C2)cc1 (centres undefined)	5	-10%	-3.3	?	-1	6
Cc1ccc(S(=O)(=O)NCC(c2cccnc2)N2CCc3ccccc32)cc1 (centres undefined)	-19	-13%	8.4	4%	-6	·
COC(=O)c1ccc(CNC(=O)/C=C/c2cc([N+](=O)[O-])ccc2OC(F)F)cc1	-1	-3%	-2.2	3%	-46	2
NC(=O)C1CCN(CC(=O)N2c3ccccc3CCc3ccccc32)CC1	7	11%	-4.8	-4%	-16	0

Reformatted with bars between the fields: 2 of the compounds above
mol | Six1-Eya2 blk | gsp antagonist | D2 agonist | gsp agonist | D2 potentiator | CtBP-E1A inh
O=c1c2c3c(sc2n2cnnc2n1Cc1ccccc1)CN(Cc1ccccc1)CC3 | ? | -14% | -11 | -14% | -23 | -28
COc1ccc(N2CCC(CNC(=O)Nc3ccc(Cl)cc3)C2)cc1 (centres undefined) | ? | -18% | -1.3 | -37%[inhibitor] | -17 | ·

(cont.)
SMILES	Six1-Eya2 blk	gsp antagonist	D2 agonist	gsp agonist	D2 potentiator	CtBP-E1A inh
CCOC(=O)N1CCC(NC(=O)c2sc(-n3cccc3)nc2C)CC1	-1	-4%	-0.7	33%	11	-8
O=C1CN(C(=O)CSc2nc3cc(Cl)ccc3c(=O)n2Cc2ccccc2)c2ccccc2N1	-1	?	-8.5	-2%[15.4 µM]	-23	-16
NC(=O)c1nnsc1Sc1c(C(N)=O)nnn1-c1cccc(N)c1	2	2%	-6.7	1%	-9	·
CCOc1ccc(/C=N/NC(=O)c2ccc(Cn3cc(Br)cn3)o2)cc1	-6	-6%	-0.2	-3%[15.4 µM]	0	2
CCCOc1ccc(C(=O)c2nc3c(n2O)CCCC3)cc1	0	-2%	-0.2	0%	-4	-2
COc1ccccc1NC(=O)CCC(=O)OCc1ccc(Cl)cc1	0	1%	-0.3	-17%	-6	·
COc1ccc(OC)c(S(=O)(=O)Nc2cc3c4c(c2)C(C)C(=O)N4CCC3)c1 (centres undefined)	0	-8%	-0.9	?	6	7
COC(=O)[C@@H]1C[C@]2(OC(=O)c3ccccc3)C=CC(=O)C[C@@H]2N1C(=O)OCc1ccccc1	52	3%	-3.7	·	-7	6
Fc1ccccc1-c1nc2c(s1)CCc1onc(-c3ccc(Br)cc3)c1-2	-3	-25%	-2.3	·	-1	1
COc1ccc2c(c1OC)C(=O)N(c1ccc(OCc3ccccc3)cc1)C2=O	7	12%	-0.9	?	-1	-2
NC(=O)c1ccccc1NC(=O)c1cccc(C(=O)Nc2ccccc2C(N)=O)n1	-83*	17%	-4.2	6%[15.4 µM]	-3	-76*
NC(=O)c1cc([N+](=O)[O-])c(Cl)cc1NCc1cccnc1	0	-2%	0.5	14%	-21	-24
O=[N+]([O-])c1cccc(C(=S)N2CCCC2)c1	-2	12%	1.3	7%	-1	-20
CCC(C)(C(=O)NC1CCCCC1)N(C(=O)C1CCC(=O)N1)c1ccc(C)cc1 (centres undefined)	-2	1%	-0.7	-10%	-8	2
COc1ccc(C(c2nnnn2CS(=O)(=O)c2ccc(C)cc2)N2CCN(Cc3ccccc3)CC2)cc1 (centres undefined)	-6	4%	-2.1	-27%	-21	0
CC(C)(C)NS(=O)(=O)c1ccc(NC(=O)CS(=O)(=O)Cc2ccccc2)cc1	3	8%	-2.9	-35%[inhibitor]	-13	-14
CCOC(=O)C(C)Sc1cnccn1 (centres undefined)	5	-1%	7.7	-49%[inhibitor]	-9	·
CCO[C@@H]1OC(C(=O)Nc2ccccc2)=C[C@H](c2ccc(C(F)(F)F)cc2)[C@H]1CCCO	6	-11%	-2.4	·	-10	1
O=[N+]([O-])c1ccc(NN=Cc2ccc(O)cc2O)nc1	-69*	-7%	-7.6	19%	-13	-74*
COC(=O)C1=C(C)N=C2SC(C)C(=O)N2C1c1cccs1 (centres undefined)	0	5%	-0.9	15%	-5	8

One compound at a time, as listed above. Screens in order: Six1-Eya2 blk, gsp antagonist, D2 agonist, gsp agonist, D2 potentiator, CtBP-E1A inh
Cc1nn(-c2ccccc2)c(Cl)c1/C=N/NC(=O)c1ccccc1F is entered as -4, 1%, -2.5, 9%[15.4 µM], -6, -6
NC(=O)c1ccccc1NC(=O)c1cccc(C(=O)Nc2ccccc2C(N)=O)n1 is entered as -83*, 17%, -4.2, 6%[15.4 µM], -3, -76*
NC(=O)C1CCN(CC(=O)N2c3ccccc3CCc3ccccc32)CC1 is entered as 7, 11%, -4.8, -4%, -16, 0
COc1ccccc1CN(C)C(=O)C(NC(=O)Cc1cccc2ccccc12)C(C)C (centres undefined) is entered as 1, -20%, -3.1, 0%[15.4 µM], 6, -4

Carrying on:
SMILES	Six1-Eya2 blk	gsp antagonist	D2 agonist	gsp agonist	D2 potentiator	CtBP-E1A inh
COc1ccccc1N1CCN(c2ccc(Cl)nn2)CC1	-3	-4%	3.3	-40%[inhibitor]	-4	-14
CCCCCCc1c(O)nc(SCCN(C)C)[nH]c1=O	0	7%	-4.8	-12%	-5	-3
CCOC(=O)C1CCN(c2cc(C)nc3ccc(OC)cc23)CC1	1	-11%	-3.5	23%	-1	-19
Cc1nn(C)c(C)c1NS(=O)(=O)c1ccc(N2CCCC2=O)cc1	3	12%	-3.2	-11%[15.4 µM]	-8	-8
COc1ccc(CCNC(=O)Nc2nc(C(N)COCc3ccccc3)cs2)cc1OC (centres undefined)	?	·	4.7	·	-8	?
CC(NC(=O)COc1ccc(-c2nnco2)cc1)c1ccc(Cl)cc1Cl (centres undefined)	4	-15%	-3.7	0%	-13	-4
CCOc1ccc(C(c2nnnn2Cc2ccccc2)N2CCN(C(=O)c3ccco3)CC2)cc1 (centres undefined)	5	-12%	-0.5	18%	-6	-8
Nc1cc(Cl)ccc1N1CCOCC1	-4	-4%	0.5	-14%	17	-4
COC(=O)c1cccc(NC(=O)CSCc2ccccc2)c1	7	3%	-2.6	7%	-3	-10
COc1ccc(/C=C/C(=O)NC(C)C)cc1Br	-2	-23%	-1.8	1%	-12	2
CCOC(=O)COc1nc2ccc(Br)cc2c(-c2ccccc2)c1C(C)=O	-1	-22%	1.6	-4%	-3	2
NNC(=O)CCCNc1ncc(C(F)(F)F)cc1Cl	8	5%	-1.3	3%	-6	-1
Cc1nnc(Cc2ccco2)c2n[nH]c(C)c12	-23	·	-3.1	?	-8	-19
COc1ccc(NC(=O)CN(C)CC(=O)N(C)C2(C#N)CCC(C)CC2)cc1 (centres undefined)	6	-2%	0.9	-8%	-9	-12
COc1ccc(CCC(=O)NC2CCC(C)CC2)cc1 (centres undefined)	8	5%	-4.4	-3%[15.4 µM]	-8	3
O=C1C2N=NN(CC(=O)N3N=C(c4cccc5ccccc45)CC3c3ccccc3)C2C(=O)N1c1ccccc1 (centres undefined)	-1	-11%	1.0	25%	-9	-5
CC(Nc1ccc2ccccc2c1)C(=O)N/N=C/c1ccncc1 (centres undefined)	5	-7%	9.5	-5%	-1	0
COC1CC(NC(C)=O)C(OC(=O)c2ccccc2)C(CBr)O1 (centres undefined)	23	·	-0.3	12%	-8	15
N#CC[C@H](Cc1ccccc1)N1CCN(Cc2ccccc2)CCC1=O	6	8%	-0.3	-15%	-4	9
COCCCNC(=O)c1nc2ccccc2c(=O)n1NC(=O)Nc1c(Cl)cccc1Cl	-24	7%	-4.3	27%[15.4 µM]	-1	-12
O=C(CCc1ccccc1)NNC(=O)c1ccc(Cl)cc1	-2	10%	3.3	4%[15.4 µM]	-4	8
COC(=O)Nc1ccc(S(=O)(=O)N2CCCC(C(=O)N3CCOCC3)C2)cc1 (centres undefined)	4	4%	-3.1	-3%	-12	·
O=C(Nc1c[nH]c(=O)[nH]c1=O)OCc1ccccc1	8	2%	-3.8	29%	-7	-2
COc1cc(-c2nnc(SCC(=O)/C(C#N)=C(\C)N)o2)cc(OC)c1OC	8	9%	2.3	-58%[inhibitor]	3	2
Cc1ccc(C(=O)N(Cc2ccccc2)C(C)(C)C)cc1C	5	-10%	-1.0	-4%	0	12
COc1ccc(-c2csc3ncnc(N4CCN(S(=O)(=O)c5cccs5)CC4)c23)cc1	-2	-20%	-2.0	2%	3	1
CC1(C)CC(=O)C(C2(O)C(=O)Nc3ccccc32)CO1 (centres undefined)	4	6%	-8.2	13%	-8	-2
N#CCSc1nc2sc3c(c2c(=O)n1C1CCCCC1)CCCC3	-2	-8%	-2.0	?	25	-1
CC1CCc2[nH]c3ccc(C(=O)N(C)CC(=O)Nc4ccccc4Br)cc3c2C1 (centres undefined)	-24	-23%	1.0	-7%[15.4 µM]	15	-10
Cc1cc(C)n(C(=O)Cc2cn3ccsc3n2)n1	-4	4%	-0.4	-8%	-2	-1
CCOC(=O)c1c(C)[nH]c(C)c1C(=O)COC(=O)c1nn(CC)c(=O)c2ccccc12	-7	·	0.8	-22%	-5	-3
C/C(=N/NC(=O)CNC(=O)/C=C/c1ccccc1)c1ccco1	6	-2%	-3.2	-5%	-15	·
O=C(NCC1CCCO1)c1ccc(/C=N/O)nc1 (centres undefined)	?	-2%	-0.7	-9%	17	-17
